GIV Gai3 FP – blocks GIV peptide binding to rat Galpha-i3 | Galpha-i3/FITC-GIV peptide fluorescence polarization, 90 min; stronger effect = lower value; scaled: aluminum fluoride 0%, vehicle 100% | AID 1224905 | percent of control (FP), % (no concentration beside the values) | P08753 | 210,000 tested, 0.42% active;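 active means replicate mean at 85% of control or lower, very high polarization wells dropped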;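 further: wells of about 15 µL received 100 nL stock; the first replicate is given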
Target sequence (P08753 whole entry, looked up): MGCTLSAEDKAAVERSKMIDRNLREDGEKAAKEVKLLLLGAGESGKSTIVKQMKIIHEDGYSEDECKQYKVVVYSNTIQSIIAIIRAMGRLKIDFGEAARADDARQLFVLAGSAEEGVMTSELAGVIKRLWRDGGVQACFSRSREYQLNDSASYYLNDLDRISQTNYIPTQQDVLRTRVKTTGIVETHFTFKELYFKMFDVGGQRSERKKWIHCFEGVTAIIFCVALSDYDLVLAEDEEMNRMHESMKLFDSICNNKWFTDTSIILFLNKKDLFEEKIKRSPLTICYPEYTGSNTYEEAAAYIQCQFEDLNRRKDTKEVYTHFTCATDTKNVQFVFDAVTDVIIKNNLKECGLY
An asterisk follows results filed as active. This is a subset; the hit share may differ from the screen's.

GIV Gai3 FP	Compound
116.8	OC12OC34CCCCC3CC13CCCC2CC1CCCCC13O4 (stereo not drawn)
109.1	COc1cc(C2C3=C(CC(C)(C)CC3=O)Nc3ccc4ccccc4c32)ccc1O (stereo not drawn)
101.7	c1ccc(N2CCN(c3nc(NCc4ccco4)c4ccccc4n3)CC2)cc1
107.1	COc1ccc(S(=O)(=O)n2c(SCC(=O)Nc3ccc(Oc4ccccc4)cc3)nc3ccccc32)cc1
103.4	Cc1cc(N2CCOCC2)nc(N2CCN(C(=O)c3ccc(C)c(C)c3)CC2)n1
120.8	CN(C)c1ccc(C2Nc3ccccc3C(=O)N2c2ccc(Br)cc2)cc1 (stereo not drawn)
107.1	O=C(NCCc1ccccc1Cl)c1cc(S(=O)(=O)N2CCc3ccccc32)ccc1F
109.3	CC(=O)NC1=NN(C(C)=O)C(c2cccc([N+](=O)[O-])c2)O1 (stereo not drawn)
103.9	CCOc1cc(C2C(C(=O)OC)=CN(Cc3ccc(OC)c(OC)c3)C=C2C(=O)OC)ccc1O
100.3	CCOc1ccc(-n2c(SCC(N)=O)nc3sc4c(c3c2=O)CCCC4)cc1
102.1	c1cncc(-c2nc(-c3ccc(-n4ccnc4)nc3)no2)c1
104.2	Cc1cc(C)nc(NS(=O)(=O)c2ccc(NC(=O)CC(NC(=O)C(F)(F)F)c3ccccc3)cc2)n1 (stereo not drawn)
98.9	FC(F)(F)C1(C(F)(F)F)N=C(c2ccco2)OC(N2CCOCC2)=N1
99.5	CCOCCCNC1=NCCNC12CCN(S(=O)(=O)c1cc(C)ccc1C)CC2
103.9	CCS/C=C(\NC(=O)c1ccccc1)[P+](c1ccccc1)(c1ccccc1)c1ccccc1
103.8	O=C(NCCCc1ccccc1)C1CCN(c2ncnc3c2oc2ccccc23)CC1
104.4	CCOC(=O)c1ccccc1NC(=O)Cn1c(-n2nc(C)cc2C)nc(C)c(C)c1=O
111.7	Cc1ccccc1NC1=NC(C)(C)Cc2ccccc21
116.5	N#CC1=C(N)Oc2n[nH]c(-c3ccc(F)cc3)c2C1c1cn[nH]c1-c1ccc(F)cc1 (stereo not drawn)
103.2	COc1cccc2c1N(C(=O)CN1C(=O)CCC1=O)C(C)(C)c1ssc(=S)c1-2
115.0	CC1=C(C(=O)Nc2ccc(Cl)cc2)C(c2ccncc2)C(C#N)=C(SCC(N)=O)N1 (stereo not drawn)
106.6	FC(F)(F)COc1nc(N2CCOCC2)nc(N2CCN(c3ccccc3)CC2)n1
124.2	COc1ccc(CCNC(=O)CCn2c(SCC(=O)NCc3ccc(C)cc3)nc3ccccc3c2=O)cc1OC
102.7	Fc1ccc(Nc2nc(-c3cccnc3)nc3ccccc23)cc1F
100.4	CCOc1ccc(NC(=O)N2CC(=O)N(CC(=O)Nc3ccccc3Cl)c3ccccc32)cc1

4 entries from above, arranged by their value in GIV Gai3 FP, largest number first:
canonical_smiles,GIV Gai3 FP
COc1cc(C2C3=C(CC(C)(C)CC3=O)Nc3ccc4ccccc4c32)ccc1O (stereo not drawn),109.1
CCOC(=O)c1ccccc1NC(=O)Cn1c(-n2nc(C)cc2C)nc(C)c(C)c1=O,104.4
c1cncc(-c2nc(-c3ccc(-n4ccnc4)nc3)no2)c1,102.1
CCOc1ccc(NC(=O)N2CC(=O)N(CC(=O)Nc3ccccc3Cl)c3ccccc32)cc1,100.4

(further entries)
GIV Gai3 FP	Compound
109.1	COc1cc(C2N(S(=O)(=O)c3ccc(C)cc3)CCN2S(=O)(=O)c2ccc(C)cc2)ccc1O
117.3	COc1cc(C2C(C#N)=C(N)N(c3ccc(C)cc3)C3=C2C(=O)CCC3)cc(OC)c1OC (stereo not drawn)
106.5	CCCc1cc(C2CCCN2Cc2ccncc2)no1 (stereo not drawn)
102.8	CCc1ccc(N2CC(O)(c3ccc(OC)c(OC)c3)[N+]3=C2CCCC3)cc1 (stereo not drawn)
103.7	CCCN1C=NS(=O)(=O)c2cc(C(=O)NCC(C)C)ccc21
108.0	O=c1c(N2CCCC2)c(N2CCCC2)c1=O
109.7	CN1C(=O)N(C)C(NNC(N)=S)C1NNC(N)=S (stereo not drawn)
107.3	CC1=C(C(=O)OC2CCCCCCC2)C(c2ccc(Cl)c(Cl)c2)CC(=O)N1 (stereo not drawn)
114.3	COc1cc(C(=O)Oc2ccc3c(=O)c(Oc4cccc(C)c4)coc3c2)cc(OC)c1OC
98.1	CC1=C(C(=O)Nc2ccc(C)cc2)C(c2ccc(Cl)cc2)NC(=O)N1 (stereo not drawn)
103.7	Cc1ccc(CNC(=O)c2ccc3c(c2)C2C=CCC2C(c2ccc([N+](=O)[O-])cc2)N3)cc1C (stereo not drawn)
105.2	CC(C)(CC(=O)OCC(=O)c1ccccc1)CC1=NS(=O)(=O)c2ccccc2N1
115.5	COc1ccc(-c2cc(C)nc(SC(C(=O)O)c3ccccc3)n2)cc1 (stereo not drawn)
114.6	CCOC(=O)C1=CC2(SC=C(C(=O)OCC)S2)C2=C(S1)C(C)(C)N(C(=O)Cc1ccccc1)c1ccccc12 (stereo not drawn)
102.5	CCOC(=O)C1=c2s/c(=C/c3ccc(C(C)C)cc3)c(=O)n2C(N)=C(C(=O)OC)C1c1ccc(C(C)C)cc1 (stereo not drawn)
117.2	CC1CCC2(CC1)C(Nc1cccc(Cl)c1)=NC(=S)N2CC#N (stereo not drawn)
108.2	COc1ccc(-c2nc3ccc(C(=O)N4CCN(c5ccccc5OC)CC4)cc3nc2-c2ccc(OC)c(OC)c2)cc1OC
104.9	COc1ccc(-c2c(C(=O)NCc3cccnc3)nn3c(C)cc(C)nc23)cc1S(=O)(=O)N1CCCC1
100.3	CC(C)N1Cc2cc(C(=O)NCCN3CCCCC3)sc2C1
105.2	CCc1ccc(C2CC(=O)Nc3c2cnn3-c2nc3ccccc3s2)cc1 (stereo not drawn)
114.5	O=C(CSc1nc2c(sc(=S)n2CC2CCCO2)c(=O)n1-c1ccc(F)cc1)NCc1ccco1 (stereo not drawn)
105.6	O=C(NCc1ccco1)c1ccc2c(=O)n(-c3ccc(F)c(Cl)c3)c(=S)[nH]c2c1
100.9	N#CC(C(=O)Nc1ccc(F)cc1)=C(SCc1cc(F)ccc1F)SCc1cc(F)ccc1F
104.4	COc1cc(NC(=O)N2CCCCCC2c2ccc(C)s2)cc(OC)c1OC (stereo not drawn)
105.2	O=C1CN(Cc2c(F)cccc2Cl)S(=O)(=O)c2ccccc2N1Cc1ccc(Cl)cc1
98.4	Cc1noc(C)c1C1CCCN1Cc1cc(Br)ccc1O (stereo not drawn)
111.5	COc1ccccc1/C=C1/N=C(c2ccc(OC)c(OC)c2)N(c2cccc(C)c2)C1=O
100.8	Cc1nn(C(C)C(=O)NCCc2ccc(S(N)(=O)=O)cc2)c(=O)c2c(C)n(-c3ccccc3)nc12 (stereo not drawn)
107.2	Cc1cccc(C(=O)NN2C(=O)c3cccc4c(Br)c([N+](=O)[O-])cc(c34)C2=O)c1
108.2	O=c1cc(CSc2nc(NCC3CCCO3)c3ccccc3n2)nc2ccc(Cl)cn12 (stereo not drawn)
110.3	CCOC(=O)C1CCN(C(=O)Cn2c(=O)n(C)c(=O)c3cnn(-c4ccccc4)c32)CC1
104.0	O=[N+]([O-])C(=C(Sc1ccccc1)Sc1ccccc1)/C(Cl)=C(/Cl)Br
109.6	COc1ccc(CCNC(=O)CCCn2c(SCc3cc(=O)n4ccccc4n3)nc3ccccc3c2=O)cc1OC
96.5	CCC(C)NC(=O)Cn1cnc2nc(N3CCC(C(=O)NC(C)C)CC3)sc2c1=O (stereo not drawn)
120.4	Fc1cccc(Cl)c1C1Nc2cccc3cccc(c23)N1
111.0	CCOC(=O)c1ccc(-n2c(=S)sc3c(=O)n(CC4CCCO4)c(SCC(=O)N(CC)CC)nc32)cc1 (stereo not drawn)
109.9	COc1ccc(C(=O)N2c3ccccc3N=C(c3ccc(C)cc3)CC2c2ccccc2)cc1 (stereo not drawn)
102.9	COc1ccccc1N1CCN(S(=O)(=O)c2cc(-c3nc(C)cs3)cs2)CC1
118.7	O=C1C(=O)N(CCN2CCOCC2)C(c2ccccc2F)/C1=C(\O)c1ccc(F)cc1 (stereo not drawn)
109.4	CCOC(=O)C1=C(C(=O)OCC)SC(=C2C(=S)C(C)(C)N(C(=O)C(F)(F)F)c3cc(C)ccc32)S1
102.2	COc1ccc(NC(=O)c2nnc(C3CCN(S(=O)(=O)c4ccc(F)cc4)CC3)s2)cc1
104.9	COc1cc(C2N(c3ccccc3)CCN2c2ccccc2)ccc1OC(C)=O
101.7	CCOC(=O)C(NC(=O)c1ccccc1F)(Nc1nc2ccccc2nc1C(F)(F)F)C(F)(F)F (stereo not drawn)
103.4	CCOC(=O)C1=C(C)NC2=C(C(=O)C(C(=O)OCC)C(c3cccc(OC)c3)C2)C1c1ccccc1C (stereo not drawn)
110.1	CC(C)(C)c1cc(CCCOC(=O)CNc2ccccc2)cc(C(C)(C)C)c1O
102.6	Cc1ccccc1-c1noc(CCc2nnc3ccc(N4CCN(c5ccc(F)cc5)CC4)nn23)n1
106.5	CN(CCc1noc(-c2ccc(C(=O)NCc3ccccc3F)cc2)n1)C(=O)c1ccc(Cl)cc1
107.1	COc1ccc(/C=C2/SC(=Nc3ccc(Cl)c(C(=O)O)c3)NC2=O)cc1C
113.7	Cc1noc(Cn2cnc3c4ccccc4n(CC(=O)NC4CCCC4)c3c2=O)n1
102.8	CCOC(=O)c1sc(NC(=O)c2ccc(S(=O)(=O)N3CCc4ccccc43)cc2)nc1C

(continued)
GIV Gai3 FP	Compound
101.1	Cc1cc(C(=O)N2CCCC2c2cc(C)on2)no1 (stereo not drawn)
107.8	CCc1cccc(-n2nnnc2N2CCN(C(=O)Nc3cc(C)ccc3C)CC2)c1
107.5	COc1ccc(-c2cn3c4c(=O)n(C)c(=O)n(C)c4nc3n2Cc2ccccn2)cc1
106.8	COc1cc(NC(=O)c2ccc3c(=O)n(Cc4ccccc4)c(=S)[nH]c3c2)cc(OC)c1OC
108.0	Cc1cccc(N(CCOC(=O)c2ccccc2)C2=NS(=O)(=O)c3ccccc32)c1
112.9	Cc1cccc(C)c1N(C)S(=O)(=O)c1ccc2[nH]cc(C(=O)N3CCN(Cc4ccccc4)CC3)c(=O)c2c1
110.2	Nc1ccc(-c2ccnc(-c3ccc(N)cc3)n2)cc1
111.5	Cc1ccc(C(=O)N/C(=C\c2ccc3c(c2)OCO3)C(=O)Nc2ccc(Br)cc2)cc1C
104.0	O=C(c1nn2c(C(F)(F)F)cc(-c3ccco3)nc2c1Br)N1CCOCC1
104.6	O=c1[nH]c(SCc2ccccc2)nnc1-c1ccccc1
104.1	Cc1nn(-c2ccc(-c3ccccc3)nn2)c(C)c1S(=O)(=O)N1CCCCC1
113.8	Cc1ccc(S(=O)(=O)CCc2noc(-c3sc(C)nc3C)n2)cc1
120.4	CC(C)(C)c1ccc(C2(O)CN(c3ccccc3)C3=[N+]2CCCS3)cc1 (stereo not drawn)
97.9	CCCOC(=O)c1cccc(-c2ccc(/C=C3\C(=O)N(c4ccc(S(N)(=O)=O)cc4)N=C3C(F)(F)F)o2)c1
109.2	CCCCC1(O)C(C)C(c2ccccc2)NC(c2ccccc2)C1C (stereo not drawn)
103.0	COc1ccc(NC(=O)Nc2c(-c3cccnc3)[nH]c3ccccc23)cc1
125.9	O=[N+]([O-])c1ccc(Cl)c(C2N(c3ccccc3)CCN2c2ccccc2)c1
100.0	Cc1nn(CC(=O)NC(C)(C)C)c(C)c1S(=O)(=O)N1CCCC(C(=O)NC2CCCC2)C1 (stereo not drawn)
115.7	Cn1c2c(c(=O)n(C)c1=O)C(c1ccc(OCc3ccccc3)cc1)C1=C(N2)c2ccccc2C1=O (stereo not drawn)
101.0	Cc1cc(C2CCCN2S(=O)(=O)c2ccc(Br)s2)no1 (stereo not drawn)
101.8	CCOc1ccc(-c2ccc(OCCNS(=O)(=O)N(C)C)nn2)cc1
104.1	COC(=O)C1=CN(Cc2ccc(OC)cc2)C=C(C(=O)OC)C1c1cc2c(cc1Br)OCO2
107.0	CCN1CCN(c2nc(-c3ccc([N+](=O)[O-])cc3)nc3ccccc23)CC1
105.7	O=C(Cn1nc2c3sccc3ncn2c1=O)Nc1ccc2c(c1)OCO2
96.1	CCOc1ccc(CN2CCCC2c2cc(C)no2)cc1OCC (stereo not drawn)
107.0	C=C(C)CN(CC)S(=O)(=O)c1ccc2[nH]cc(C(=O)O)c(=O)c2c1
102.0	Cc1ccc(/C(O)=C2\C(=O)C(=O)N(c3nnc(C)s3)C2c2ccccc2)cc1 (stereo not drawn)
113.6	Cn1c(=O)c2c(ncn2Cc2nc(N)nc(N3CCOCC3)n2)n(C)c1=O
100.1	O=C1CC(c2ccccc2Cl)CC2=C1C(c1coc3ccccc3c1=O)Nc1ccccc1N2 (stereo not drawn)
104.5	O=C(CSc1nnc(-c2cc3ccccc3o2)n1-c1ccccc1)N1CCN(c2ccccc2)CC1
104.6	Brc1ccc(-c2csc(Cc3nc(-c4ccc5c(c4)OCO5)no3)n2)cc1
103.5	Cc1c(-c2nsc(Nc3ccccc3)n2)nnn1-c1ccccc1
100.9	O=S(=O)(c1ccc(F)cc1F)N1CCN(c2ncnc3c2nnn3-c2ccc(F)cc2)CC1
97.9	CCCCCn1c(SCC(=O)N(C)Cc2ccccc2)nc2cc(C(=O)N3CCC(C(N)=O)CC3)ccc2c1=O
100.6	Cc1cc(OCCSc2nnc(-c3ccc4c(c3)OCCCO4)n2C)ccc1Cl
99.6	CCOC(=O)c1cnn(-c2ccc(C(=O)N3CCN(c4cc(C)ccc4C)CC3)cc2)c1N

Filtered by structure: the compounds so far containing a nitro group on carbon (6)
GIV Gai3 FP	Compound
109.3	CC(=O)NC1=NN(C(C)=O)C(c2cccc([N+](=O)[O-])c2)O1 (stereo not drawn)
103.7	Cc1ccc(CNC(=O)c2ccc3c(c2)C2C=CCC2C(c2ccc([N+](=O)[O-])cc2)N3)cc1C (stereo not drawn)
107.2	Cc1cccc(C(=O)NN2C(=O)c3cccc4c(Br)c([N+](=O)[O-])cc(c34)C2=O)c1
104.0	O=[N+]([O-])C(=C(Sc1ccccc1)Sc1ccccc1)/C(Cl)=C(/Cl)Br
125.9	O=[N+]([O-])c1ccc(Cl)c(C2N(c3ccccc3)CCN2c2ccccc2)c1
107.0	CCN1CCN(c2nc(-c3ccc([N+](=O)[O-])cc3)nc3ccccc23)CC1

High-throughput results from PubChem BioAssay.
